KCNQ2 enhance – potentiators of rat KCNQ2 potassium channel; B-score at 10 µM; actives 0.54% (n = 310,000); CHO-K1 KCNQ2, FluxOR thallium flux fluorescence; stronger effect = higher value; O88943;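 active = fluorescence ratio B-score at least 3 SD of library B-scores, with initial fluorescence B-score within 3 SD, cut at about 5.3 in these data; same plate scores as AID 2156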;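 also: B-score of peak minus minimum over baseline fluorescence ratio after K+ and Tl+ stimulus; positive B-score means potentiation of KCNQ2 with more thallium influx and brighter signal; only the inactives scoring about 0 or higher are listed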
Target sequence (O88943 whole entry, looked up): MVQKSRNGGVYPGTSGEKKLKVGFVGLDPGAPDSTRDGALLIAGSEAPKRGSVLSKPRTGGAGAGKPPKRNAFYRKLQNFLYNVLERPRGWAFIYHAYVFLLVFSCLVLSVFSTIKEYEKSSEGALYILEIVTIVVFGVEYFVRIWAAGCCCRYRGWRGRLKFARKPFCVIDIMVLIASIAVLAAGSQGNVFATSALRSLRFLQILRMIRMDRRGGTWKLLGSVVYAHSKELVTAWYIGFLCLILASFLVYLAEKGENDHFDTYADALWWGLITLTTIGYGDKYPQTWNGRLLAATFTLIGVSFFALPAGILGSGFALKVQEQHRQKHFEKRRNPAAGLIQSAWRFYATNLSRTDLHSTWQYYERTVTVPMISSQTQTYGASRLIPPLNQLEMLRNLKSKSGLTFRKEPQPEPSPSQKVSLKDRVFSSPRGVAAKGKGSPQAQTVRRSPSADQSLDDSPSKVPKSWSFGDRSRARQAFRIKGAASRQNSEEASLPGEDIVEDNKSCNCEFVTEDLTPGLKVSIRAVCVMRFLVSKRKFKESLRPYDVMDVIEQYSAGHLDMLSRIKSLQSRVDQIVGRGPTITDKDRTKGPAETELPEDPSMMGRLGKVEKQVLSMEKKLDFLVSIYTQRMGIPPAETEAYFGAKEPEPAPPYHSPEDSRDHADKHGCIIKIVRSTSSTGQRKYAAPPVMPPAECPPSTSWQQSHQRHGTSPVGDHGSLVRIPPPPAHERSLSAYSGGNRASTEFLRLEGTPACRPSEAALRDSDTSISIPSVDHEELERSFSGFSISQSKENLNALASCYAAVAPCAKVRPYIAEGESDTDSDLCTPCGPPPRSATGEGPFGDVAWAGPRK
KCNQ2 enhance baseline – further read-out of KCNQ2 enhance, marked with its call; B-score; compound at 10 µM; measured here: initial fluorescence intensity artifact check;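 brightness before thallium and not channel activity; 0 = typical well and far values either way flag optical interference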
An asterisk follows results filed as active. The list is partial; count on the stated rates, not on these rows.

SMILES	KCNQ2 enhance	KCNQ2 enhance baseline
CCOC(=O)C1CCCN(C(=O)C2CCN(S(=O)(=O)c3cccs3)CC2)C1 (centres undefined)	0.59	2.1
CC(C)NS(=O)(=O)c1ccc(CCC(=O)N2CCC(C(N)=O)CC2)cc1	1.7	-0.01
O=C1CSC(c2ccccc2F)N1c1ccccc1 (centres undefined)	2.1	0.97
CC(C)C(=O)Nc1nc(-c2ccccc2)ns1	1.7	0
CN(C)S(=O)(=O)c1ccc(N2CCCC2)c(C(=O)NCc2ccc(Cl)cc2)c1	0.83	0.01
CCOC(=O)c1ccc(NC(=S)N2CCN(C(=O)C3CCCO3)CC2)cc1 (centres undefined)	1.1	0.48
O=C(Nc1cccc(Cl)c1N1CCCC1)c1ccc([N+](=O)[O-])o1	0.07	-1.6
CCN(CC)S(=O)(=O)c1ccc(N2CCCC2)c(NC(=O)C2=COCCO2)c1	0.08	1.2
O=C(CN1C(=O)c2ccccc2C1=O)Nc1ccc(N2CCOCC2)cc1	1.1	0.8
CCCCN(C(=O)c1ccc(S(=O)(=O)N2CCCC2)cc1)C1CCS(=O)(=O)C1 (centres undefined)	0.76	0.36
CC(C)N(C(=O)C(F)(F)F)C(C(=O)NC1CCCCC1)c1ccncc1 (centres undefined)	0.23	0.8
c1nc(N2CCN(Cc3ccc4c(c3)OCO4)CC2)c2[nH]cnc2n1	0.88	-1.1
Cc1cc(-c2nnc3n2CCCCC3)c(C)n1-c1ccccc1	0.42	2.9
O=C(Nc1ccc(-c2csc(Nc3cccc(C(F)(F)F)c3)n2)cc1)c1cc([N+](=O)[O-])cc(C(F)(F)F)c1	1.1	0.2
CN(C)c1ccc(C=NCCC2(O)CCOC(C)(C)C2)cc1 (centres undefined)	0.56	-1.6
Cc1cccc(C(=O)N[C@@H]2c3ccccc3C[C@@H]2O)n1	0.18	-0.73
Cn1c(=O)c2c(nc(NCc3ccccc3)n2CCCc2ccccc2)n(C)c1=O	1.1	0.03
Cc1ccc(C(=O)NCC(c2ccco2)N2CCOCC2)cc1 (centres undefined)	1.6	-0.67
O=[N+]([O-])c1ccc(O)c(/C=N/Nc2ncnc3c2cnn3-c2ccccc2)c1	5.2	1.4
Cc1ccc(S(=O)(=O)n2c3ccc(F)cc3c3nc(C)sc32)cc1	0.59	1.2
CCNc1cc(N2CCOCC2)nc(SC)n1	0.6	-0.03
CN1CCN(C(=O)c2ccc3ccccc3c2)CC1	1.5	-0.14
CCOC(=O)N1N=C(c2ccccc2)CC1(O)C(F)(F)F (centres undefined)	0.48	0.04
CCOC(=O)CSc1nnc(COc2cccc(C)c2)o1	1.3	-0.29
CC(=O)c1cc(N2CCOCC2)ccc1[N+](=O)[O-]	0.8	-1.8

Next part:
SMILES	KCNQ2 enhance	KCNQ2 enhance baseline
Cc1ccc(C(=O)Nc2ccc(C(=O)N3CCCCC3)cc2)o1	2.6	-1.5
COc1ccc(CNC(=S)NNC(=O)c2cc3ccccc3o2)cc1	0.93	1.1
CN(C)C(=O)COC(=O)c1ccc(S(=O)(=O)NCc2ccco2)cc1	1.6	-0.91
CCOC(=O)c1cnc2cc(-c3ccc(Cl)cc3)nn2c1N	1.1	-0.95
CCc1noc(C)c1C(=O)Nc1ccc(-c2nnc3n2CCCCC3)cc1	3.3	0.04
Cc1cccc(C)c1NC(=O)CSc1nnc(C)n1-c1ccccc1	1.6	-2.3
Cc1nn(-c2ccccc2)c(C)c1C(=O)OCC(=O)N1CC(=O)Nc2ccccc21	0.67	0.34
CCOC(=O)CC(=O)CSCC(=O)Nc1ccc(C)cc1	0.98	-1.4
COc1cc(/C=N/NC(=O)c2cccs2)ccc1OCc1ccccc1	0.57	-0.6
CC1C(=O)Nc2ccccc2N1C(=O)c1ccccc1 (centres undefined)	0.34	-1.9
O=C(/C=C/c1ccc([N+](=O)[O-])s1)N1CCCCC1	0.15	0
COc1cc(-c2[nH]ncc2CN2CCN(c3cccc(C)n3)CC2)cc(OC)c1OC	3.5	-1.2
Cc1ccc(OCCN(C)C(=O)C2CCC(=O)N(CCCN3CCOCC3)C2)cc1 (centres undefined)	0.09	0.91
Cc1ccc(-c2nnnn2-c2ccc(C)cc2)cc1	0.41	-0.38
CS(=O)(=O)c1ccccc1-c1nc(-c2ccc([N+](=O)[O-])cc2)no1	1	1.2
COc1cccc(OCCCCCCN2CCOCC2)c1	0.17	-1.3
O=C(N/N=C/c1ccc(Sc2nc3ccccc3[nH]2)o1)c1ccncc1	0.17	-1.2
C=CCNC(=O)N1CCCC(N2CCN(c3ccccc3OC)CC2)C1 (centres undefined)	0.66	1.3
C[C@H]1CN=C(Nc2ccccc2)N1CC1CCC1	1.7	0.15
COc1ccc(OC)c(C2CC(=O)Nc3n[nH]c(-c4ccccc4)c32)c1 (centres undefined)	0.27	-0.14
CC(C)N(Cc1cnn(C)c1)C(=O)C1CCC(=O)N(CCc2cccc(F)c2)C1 (centres undefined)	0.29	0.09
COc1ccc(CNC(=O)C/C(C)=N/NC(=O)c2cc(OC)cc(OC)c2)cc1	1	0.25
CN(C)CCCNc1oc(/C=C/c2cccs2)nc1S(=O)(=O)c1ccccc1	0.44	1.1
O=C(CSc1nc(=O)n2ccccc2n1)NCc1ccccc1	1.3	1.3
O=C(CSc1nnc(-c2ccc(F)cc2)o1)Nc1ccc(S(=O)(=O)N2CCCC2)cc1	1.4	-2.1

More structures:
SMILES	KCNQ2 enhance	KCNQ2 enhance baseline
COc1cccc(CNC(=O)CCC2CCCN(C(=O)C3CCOCC3)C2)c1 (centres undefined)	1.8	-0.01
O=C(Nc1nnc(-c2ccc(Cl)cc2)o1)Nc1ccccc1Cl	0.03	0.2
COC(CNC(=S)Nc1ccc([N+](=O)[O-])cc1)OC	0.63	-0.46
CC(=O)NC(=S)Nc1ccc(S(=O)(=O)N2CCOCC2)cc1	0.35	0
Cc1ccc(SCc2cc(-c3ccc(Cl)cc3)no2)cc1	0.17	0.14
CCOC(=O)c1c(C)nc2cc(C)cc(C)n12	1	-1.1
O=C(CCl)NC(Cc1ccccc1)c1ccccc1 (centres undefined)	0.08	-0.01
O=C(Nc1ccc(F)cc1F)c1ccc(-n2cccn2)nc1	0.36	5.7
COc1ccc(NC(=O)C2CCN(C(=O)Nc3ccc(C)cc3)CC2)cc1OC	0.4	1.3
O=C(Nc1ccc(-c2csnn2)cc1)C1CC1	0.23	0.01
O=C(O)c1ccc(S(=O)(=O)c2ccc3c(c2)C(=O)N(NC(=O)c2cccnc2)C3=O)cc1	1.1	0.25
CCOC(=O)[C@@H]1[C@H]2COc3ccccc3[C@H]2N2C(=O)N(c3ccccc3)C(=O)[C@]12C	4.2	0.67
CC1(C)CC1C(=O)Nc1ccc([N+](=O)[O-])cc1Br (centres undefined)	1.4	0.62
COCCN(Cc1ccccc1)C(=O)c1cccc(S(=O)(=O)N(C)c2c(C)n(C)n(-c3ccccc3)c2=O)c1	0.21	-0.26
O=C(Nc1ccc(Cl)cc1Cl)c1n[nH]c(Cn2cncn2)n1	7.1*	-0.22*
Cc1cc2c(cc1C)NC(c1nc3ccccc3[nH]1)C1=C(CC(C)(C)CC1=O)N2 (centres undefined)	0.57	-1.9
O=C1c2cccnc2C(Nc2ccc(Br)cc2)N1Cc1cccs1 (centres undefined)	1.2	0.68
COCCCN(C(C)=O)c1nc(-c2ccccc2)cs1	0.06	-0.09
COC(=O)c1cc(S(=O)(=O)NCCc2ccc(C)cc2)c[nH]1	0.03	0.26
O=C(CNC(=O)c1ccco1)NC1CCCCCC1	0.44	-0.99
CN(C(=O)c1ccc(N2CCCCC2)c([N+](=O)[O-])c1)C1(C)CCS(=O)(=O)C1 (centres undefined)	0.2	0.1
COc1cccc2c(=O)c3ccoc3n(C)c12	1.2	-1.6
Cc1cc(=O)oc2cc(OCC#N)ccc12	2.5	-0.18
CN1CCN(c2ccccc2NC(=O)c2ccc(Br)o2)CC1	1.7	-0.67
CN1C(=O)c2ccccc2Sc2ccc(NC(=O)N3CCOCC3)cc21	1.1	-0.67

New compounds follow
SMILES	KCNQ2 enhance	KCNQ2 enhance baseline
CN(CC(=O)Nc1ccc(Cl)c(C(F)(F)F)c1)C(=O)CCNC(=O)c1ccco1	1.5	1.9
CN1CCc2ccc(NC(=O)c3ccc(C(F)(F)F)cc3)cc2C1	0.51	-0.64
NS(=O)(=O)c1ccc(CNC(=O)Cc2c(F)cccc2Cl)cc1	2.4	-1.3
CCOC(=O)c1c(C)[nH]c(C)c1C(=O)COC(=O)CNC(=O)c1ccc(OCC)cc1	1.2	-1.1
CC1(C)Oc2ccc(C(=O)NC3CCCCC3)cc2N(CC#N)C1=O	1.4	-0.37
CN(C(=O)COc1ccccc1)C1CCS(=O)(=O)C1 (centres undefined)	0.9	-0.03
Cc1cccc(NC(=O)CSCC(=O)Nc2cc(S(=O)(=O)N3CCOCC3)ccc2N2CCCC2)c1	0.02	-0.41
O=C(NNC(=O)c1ccccc1-c1ccccc1C(=O)O)c1ccccc1	0.09	-0.33
Nc1nc2n(n1)C(c1c(F)cccc1Cl)CC(c1ccc(F)cc1)N2 (centres undefined)	1.4	1.4
CN(C)c1ccc(/C=C(\C#N)C(=O)NCc2ccco2)cc1	0.21	-0.68
CCOC(=O)C1=C(C)NC(=O)NC1c1c(C)nn(-c2ccccc2)c1Cl (centres undefined)	3.1	-1.2
CCOC(=O)C1=C(NC(=O)c2ccc(Br)o2)Nc2ccccc2N=C1	0.3	1.2
CC1=CCC2(CO)COC(c3ccccc3O)C1C2 (centres undefined)	2.4	-1.3
CC(=O)c1ccc(NC(=O)Cc2ccsc2)cc1	0.68	-0.44
COc1ccc(/C=c2\s/c(=C(/C#N)C(=O)NCc3ccco3)n(-c3ccccc3)c2=O)cc1	1.5	0.05
COc1ccc(C(=O)NC2CC2)cc1OC1CCN(Cc2ccc(F)cc2)CC1	1.2	2
COc1cc(NC(=O)C2CCCN(S(=O)(=O)c3ccc4c(c3)CCCN4C(C)=O)C2)cc(OC)c1 (centres undefined)	0.32	-1.4
COc1cc(C(=O)NNC(=O)c2ccccc2Br)ccc1OCC(=O)N1CCOCC1	0.54	0.22
CCN(CC)S(=O)(=O)c1cccc(C(=O)OCC(=O)C23CC4CC(CC(C4)C2)C3)c1	0.1	-1.1
CCOC(=O)c1ccc(NC(=O)C2CC(=O)Nc3nc4ccccc4n32)cc1 (centres undefined)	0.11	0.21
Cc1ccc(S(=O)(=O)NC(=O)COc2ccc([N+](=O)[O-])cc2)cc1	1.5	-0.06
CCN(CC)Cc1c(C(=O)OC(C)C)nnn1-c1nonc1N	0.02	0.69
CC(=O)Nc1ccc2nc(SCC(=O)N3CCOCC3)sc2c1	0.72	-0.19
O=C(C1CCN(C2CCN(C/C(Cl)=C/c3ccccc3)CC2)CC1)N1CCOCC1	0.46	0.09
COC(=O)C(C)NC(=O)C1CCCN1S(=O)(=O)c1cc(C)c(Cl)cc1C (centres undefined)	1.1	0.14

(more compounds)
SMILES	KCNQ2 enhance	KCNQ2 enhance baseline
Cc1cc(C)nc(-n2ncc3c2CC(c2ccccc2C)CC3=O)n1 (centres undefined)	1.3	-0.33
CCc1ccc(OCCNC(=O)c2ccc(S(=O)(=O)N(C)C)cc2)cc1	0.1	0.68
CCOC(=O)c1cc(C#N)c(SCc2ccc(C#N)cc2)nc1C	0.51	-2.1
CCOC(=O)CNS(=O)(=O)c1cc(-c2nn(C)c(=O)c3ccccc23)ccc1C	0.39	-1.6
O=C(/C=C/c1ccc([N+](=O)[O-])cc1)NNC(=O)C1CC1	0.59	0
CCCCCCC(=O)N=Nc1c(O)[nH]c2ccc([N+](=O)[O-])cc12	0.45	1.3
COc1ccc(Nc2nccc3c2ncn3C)cc1	0.06	0.14
CCc1cccc(C)c1NC(=O)COC(=O)c1ccc2c(c1)S(=O)(=O)c1ccccc1C2=O	0.68	-0.24
CC(C)NC(=O)c1onc(CSc2cccc(F)c2)c1C(=O)O	0.01	0.48
COc1ccc(CN(C)c2ncnc(N)n2)cc1	1.4	-1.5
CC(=O)c1cccc(Nc2nc(-c3cccnc3)cs2)c1	1.7	0.5
CC(C)(C)NC(=O)c1cc(-c2ccccc2)n[nH]1	1.1	-2
COC(=O)c1cnn(C(=O)c2ccccc2Br)c1N	1	-1.8
O=C(NCc1ccc(F)cc1)c1ccc[nH]1	0.46	0.3
Cc1ccc(NC(=O)c2cccs2)cc1[N+](=O)[O-]	1.7	-0.27
